# ugtP null kill: kills S. aureus RN4220 lacking UgtP; AID 1259309; growth inhibition, % (test concentration not listed); actives 0.54% (n = 330,000); S. aureus RN4220 ugtP deletion, OD600 growth, 16 h; some inactives read as strong as hits;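 active = z-score under -3 and OD600 up to 0.15 on both plates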;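 also: plate controls were untreated wells for no effect and antibiotic for full effect; wells of about 80 µL received 100 nL stock; the first replicate is given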
# Mtb hypoxia inh: inhibitors of hypoxia-regulated fluorescent reporter in Mycobacterium tuberculosis; M. tuberculosis hypoxia-regulated fluorescent reporter, fluorescence; fluorescence inhibition, % (concentration not given with the values); actives 0.1% (n = 300,000);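 active = 35 to 45% if threefold the growth effect, above 45% if 1.5-fold the growth effect; inactive = the rest, general growth blockers included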;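 also: wells of about 50 µL received 100 nL stock; 0% = vehicle wells and 100% = reference inhibitor wells; whole bacteria with a GFP reporter of the hypoxia response; strong numbers were not always called active; many hits fall short of the cut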
# PrP UTR inh: inhibition of PrP 5' UTR reporter expression; inhibition, % (test concentration not listed); AID 488862; cell-based PrP 5' UTR mRNA reporter, plate reader; actives 0.35% (n = 340,000);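 active = every replicate at 50% or more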;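 also: 0 = median of the neutral control wells; tested in H4 reporter cells; numbers are from one replicate; inactives centre near -14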
# BJeLR lethal: BJeLR cell viability loss | AID 1554 | actives 0.17% (n = 300,000) | BJeLR (HRASV12) viability, CellTiter-Glo ATP luminescence, 48 h; reference of the scale not given here | inhibition, % (concentration not given with the values);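 active = replicate mean above 50%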;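 also: 50 nL library stock added to about 25 µL; numbers are from one replicate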
# Sa RN4220 lethal: kills Staphylococcus aureus RN4220 | S. aureus RN4220 growth, OD600, 16 h | inhibition, % (concentration not given with the values) | actives 0.33% (n = 330,000) | AID 1259311;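 active = z-score of -3 or lower and OD600 up to 0.18 on both plates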;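 also: plate controls were untreated cells for no effect and reference antibiotic for full effect; stock transfer was 100 nL into about 80 µL; one replicate is shown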
# Bead autofluor: counter-screen for toxin protease inhibitors: compound fluorescence; fluorescence intensity (concentration not given with the values); AID 624483; actives 3.1% (n = 360,000); compound autofluorescence counterscreen, microsphere flow cytometry; hits give high values;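 active = at least 3 SD above the mean of all compounds, about 16000 in these data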;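 also: 100 nL of 1 mM stock went into each well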
# Mtb hypoxia inh growth: recorded beside Mtb hypoxia inh, whose call it bears; growth inhibition, %; measured here: M. tuberculosis growth (absorbance);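 0% = vehicle and 100% = reference antibiotic; read after six days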
# Starred values were filed as active, the others as inactive; x = no result given.
SMILES	ugtP null kill	Mtb hypoxia inh	Mtb hypoxia inh growth	PrP UTR inh	BJeLR lethal	Sa RN4220 lethal	Bead autofluor
Cc1ccc(S(=O)(=O)NN=Cc2ccc([N+](=O)[O-])o2)cc1C	14	11	12	x	x	6.1	x
COCCN(C(=O)Nc1ccccc1)c1ccccc1C	8	-1	-4	-27	-1	1.9	6427
O=C1NC(=O)C(=Cc2ccccc2[N+](=O)[O-])S1	8	21	16	-20	x	8.8	3398
CCCOP(=O)(OCCC)C(NC(=O)c1cc(OC)c(OC)c(OC)c1)c1ccccc1 (configuration not stated)	13	1	3	-26	1	-0.9	4900
O=C(NCCCNCc1ccccc1)c1ccncc1	5	6	12	-14	-3	9.4	10365
CCc1nc(Nc2ccncc2)c2oc3ccccc3c2n1	1	-10	0	-13	-11	0.1	20587*
Cn1cccc1Cc1nnc(SCC(=O)N2CCCCCC2)n1-c1ccc(F)cc1	12	x	x	-43	-7	3.7	5998
O=S(=O)(NC1CCCCC1Nc1ccccc1)c1ccccc1 (configuration not stated)	-1	9	5	-8	1	11	2588
O=C(C=Cc1ccccn1)c1ccccc1	13	x	x	-27	x	31	3497
COc1ccc(C(C)=NNC(=O)CN(c2ccc(OC)cc2)S(=O)(=O)c2ccccc2)cc1	8	7	-1	x	x	3.1	x
Cc1cccc(N(C)c2cc(C)nc3nc(C)nn23)c1	9	x	x	-19	-3	2.6	4599
Cc1cc(C)cc(NC(=O)CSc2nnc(CN3CCOCC3)n2C)c1	-2	1	-1	-10	-3	-3.4	3164
COc1ccccc1NC(=S)NCc1ccc(S(N)(=O)=O)cc1	2	7	7	-2	8	7.1	6934
COCCNC(=O)Cn1cc(/C=C2\C(=O)NC(=O)N(c3cccc(C)c3C)C2=O)c2ccccc21	8	4	7	x	2	4.4	3776
N#Cc1c(C(F)(F)F)cc(-c2cccs2)nc1SC(C(=O)O)c1ccccc1 (configuration not stated)	3	-3	9	8	-4	-2.6	3825
CCCCc1nnc(NC(=O)CSc2nc(=O)cc(N)n2-c2cccc(C)c2)s1	1	9	5	-16	-4	1.8	16503*
Cc1ccc(S(=O)(=O)/N=C(\N)Nc2nc(C)c3ccccc3n2)cc1	14	12	9	-9	-1	5.0	2572
O=[N+]([O-])c1ccc(Sc2nnnn2-c2ccccc2)c(Cl)c1	-9	4	5	-5	12	9.2	9784
c1ccc(-c2cc3c(N4CCN(c5ncccn5)CC4)ncnc3s2)cc1	8	-7	-1	-7	4	10	4743
COC(=O)C1CN(C(=O)C(C)Oc2ccc(F)cc2)c2ccccc2O1 (configuration not stated)	6	8	8	-15	-4	0.3	3685
CCCn1nc(C(=O)Nc2nc3ccccc3[nH]2)c2ccccc2c1=O	-8	9	4	-2	2	5.9	2953
O=C(NCc1ccccn1)[C@@H]1C[C@H]1[C@@H](NP(=O)(c1ccccc1)c1ccccc1)c1ccccc1	x	x	x	-3	2	x	3777
O=C(O)c1ccc(OC(F)(F)C(F)C(F)(F)F)cc1 (configuration not stated)	7	x	x	-17	8	2.0	3841
COc1ccc(N2CCN(C(c3cc4cc(C)ccc4[nH]c3=O)c3nnnn3Cc3ccccc3)CC2)cc1 (configuration not stated)	-10	-3	6	-27	-8	0.1	20480*
Cc1cc2cc(CN(C(=O)C3CC3)C3CCCC3)c3nnnn3c2cc1C	-18	6	14	-13	-3	-1.2	4004
CCCS(=O)(=O)N1CCN(C(=O)COc2ccc(-c3ccccc3)cc2)CC1	0	11	5	-9	-6	2.6	6407
Cc1ccc(NS(=O)(=O)c2ccc(NS(=O)(=O)c3cccs3)cc2)cc1	11	14	0	-14	-10	-4.6	10409
CCc1ccccc1NC(=O)C1CCN(C(=O)c2cccs2)CC1	-1	14	-4	-16	1	4.3	3778
CC(=NNc1ccc(F)cc1F)c1ccc(N2CCOCC2)cc1	-5	11	8	x	x	1.3	x
CC(=O)OCN(C#N)c1nc(N(C)C)nc(N(C)C)n1	-2	0	4	5	-3	2.4	8844
O=S(=O)(N/N=C/c1ccc2c(c1)OCCO2)c1ccc(Cl)cc1	x	x	x	-31	2	x	7704
Cc1ccc(-n2nnc(-c3cccnc3Cl)n2)cc1	8	17	7	-53	6	12	4191
CCN(CC)c1ccc(/C=C2/C(=O)NC(=O)N(Cc3ccco3)C2=O)cc1	8	10	22	-9	-6	3.2	3131
COc1cc(C(C#N)N2CCCCC2)ccc1O (configuration not stated)	-7	x	x	-8	6	2.3	4598
O=C(CN1C(=O)NC2NC(=O)NC21)NN=C1CCCC1 (configuration not stated)	2	2	13	-1	-4	2.0	1997
Cc1ccccc1OCC(=O)Nc1ccccc1CO	-5	x	x	-32	2	-1.3	4385
CCc1sc(C(=O)NC(C)C2CCCO2)cc1Br (configuration not stated)	4	0	0	-10	-5	0.9	x
O=C(Cc1ccccc1)Nc1ccc(NC(=O)c2ccco2)nc1	11	x	x	-32	-2	14	3843
COC(=O)c1c(NC(=O)C2CCCCC2)sc2c1CCN(C(C)C)C2	-1	5	13	0	6	-14	4728
O=C(CSc1nc2ccccc2[nH]1)Nc1ccc(F)c(F)c1	-7	8	8	-29	12	3.8	7800
Cc1ccc(Oc2ncccc2C(=O)NCC(=O)O)cc1	7	-3	-6	-11	0	3.9	6389
CC(C)CN(C(=O)COC(=O)c1ccc(-c2ccccc2)cc1)C1CCS(=O)(=O)C1 (configuration not stated)	3	13	3	-13	5	-8.9	3626
CC1(C)c2ssc(=S)c2-c2ccccc2N1C(=O)c1ccco1	2	8	0	-18	-4	0.6	3714
O=C1[C@@H](Oc2ccccc2)[C@@H](c2ccncc2)N1c1ccccc1	1	5	4	-26	x	4.7	4211
COc1cc(/C=C2\CC/C(=C\c3cc(OC)c(O)c(OC)c3)C2=O)cc(OC)c1O	-17	-3	-3	-6	x	9.5	1974
COc1cc(/C=C2/SC(=S)N(CC(=O)NC(C)(C)C)C2=O)cc(OC)c1OC	-5	5	17	-23	9	4.7	6534
CCOC1=NN(c2ccc(Cl)cc2)C(=O)/C1=C\N(C)C	-3	12	0	-12	1	1.6	2454
CCOP(=O)(OCC)C(NC(=O)C(F)(F)F)c1ccccc1 (configuration not stated)	3	x	x	-1	1	2.5	1899
CC(=NNC(N)=S)c1ccc2c(c1)OCCO2	11	x	x	x	x	4.8	x
CN(C)c1nc(NC(C)(C)C)nc(NC(C)(C)C)n1	14	17	26	-9	-4	48	4732
COc1ccc(CCc2cc(OC)cc(=O)o2)cc1	0	x	x	-4	6	5.1	5231
O=C(CN1CCN(CC(=O)Nc2ccccc2Cl)CC1)NCC1(N2CCOCC2)CCCCC1	5	-13	0	-4	x	2.7	6342
COc1ccc(S(=O)(=O)N2CCC3(CC2)OCCN3S(=O)(=O)c2c(C)cc(C)cc2C)cc1	6	1	9	-10	5	2.8	6919
COC(=O)CNc1n[nH]c(=S)[nH]c1=O	3	x	x	-6	1	-3.2	3539
CCn1ncc(CN2CCCC(C(=O)Nc3cccc(-c4cc5ccccc5[nH]4)c3)C2)c1C (configuration not stated)	8	7	-1	-6	3	-4.5	5012
CC[C@@H](C)C(C(=O)N1CCN(C(=O)OC(C)(C)C)CC1)n1cc(-c2cn([C@@H](C)C(=O)N3CCN(C(=O)OC(C)(C)C)CC3)nn2)nn1 (some centres not stated)	x	x	x	-13	-1	x	2875
Cc1ccccc1C1CCCN(Cc2nc(CC3CC3)no2)C1 (configuration not stated)	2	13	1	-16	x	-1.7	4184
Cc1ccc(NC(=O)CSC2=C(C#N)C(c3ccco3)C3=C(CC(C)(C)CC3=O)N2)cc1 (configuration not stated)	-15	5	6	-26	-3	-0.2	8436
COc1ccc(S(=O)(=O)N2CCCC2)cc1Br	14	15	0	-60	-2	6.6	3373
Cc1ccccc1NCC(=O)N/N=C/c1c(C)c(C(=O)c2ccc(Cl)cc2)n2ccccc12	x	x	x	-19	3	x	2384

# (listing goes on)
SMILES	ugtP null kill	Mtb hypoxia inh	Mtb hypoxia inh growth	PrP UTR inh	BJeLR lethal	Sa RN4220 lethal	Bead autofluor
O=C(NNC(=O)c1ccccn1)c1ccc(OC(F)F)cc1	-3	-1	6	-16	x	6.4	6180
CCCCCCCC(=O)NNC(=O)c1ccc([N+](=O)[O-])cc1	2	1	5	-36	-1	2.8	24645*
CCOc1cc(C(=O)N(C)c2ccccc2)cc(OCC)c1OCC	5	7	5	-23	9	4.3	2986
CC(C)(C)c1ccc(C(=O)NCC(=O)N2CCC3(CC2)NCCc2[nH]cnc23)cc1	9	8	1	-16	0	0.4	4667
CSc1ccccc1NC(=O)C1CCN(S(C)(=O)=O)CC1	14	-7	2	-22	5	7.4	x
O=C(Cc1csc(-c2ccc(Cl)cc2)n1)Nc1cccc(S(=O)(=O)NC2=NCCC2)c1	4	10	-4	-6	x	-0.1	4397
Cn1cc([N+](=O)[O-])c(C(=O)Nc2cnn(Cc3ccc(F)cc3)c2)n1	5	5	8	-21	7	5.2	2435
O=C(O)c1cccc(Cn2c(Cl)c(/C=N/NC(=O)c3ccccc3O)sc2=O)c1	x	x	x	2	6	x	3420
CCc1ccc(-c2nc(CN3CCC(C(=O)NCc4ccc(F)cc4)CC3)c(C)o2)cc1	-9	-16	-3	-9	-4	0.6	24227*
O=C(NNC(=O)c1ccc(Cl)cc1Cl)c1ccc2ccccc2c1	-1	11	3	-25	x	0.6	3176
C#CCOCCOCCOCCNc1nc(N2CCN(C(=O)C(C(C)C)n3cc(CCO)nn3)CC2)nc(N2CCN(C(=O)C(C(C)C)n3cc(CCO)nn3)CC2)n1 (configuration not stated)	12	8	1	x	x	6.0	x
CC(C)Cn1c(N)c(C(=O)NCC2CCCO2)c2nc3ccccc3nc21 (configuration not stated)	-7	x	x	-11	1	-1.0	4009
COc1ccc(C2CC(c3ccc(OC)cc3OC(C)=O)=NN2C(=O)c2ccccc2)cc1 (configuration not stated)	-6	5	-1	-19	-25	-5.2	4224
Cc1ccsc1C(=O)OCC(=O)Nc1c(Cl)cccc1C(F)(F)F	5	6	0	-26	-5	5.9	2637
CC(C)C[C@H](NC(=O)c1nc[nH]c1C(=O)NCCCCCNC(=O)OC(C)(C)C)C(=O)OCc1ccccc1	x	x	x	-19	6	x	3929

# Rewritten with values under each structure: entries from further up.
# Results follow in this order: ugtP null kill | Mtb hypoxia inh | Mtb hypoxia inh growth | PrP UTR inh | BJeLR lethal | Sa RN4220 lethal | Bead autofluor
CCn1ncc(CN2CCCC(C(=O)Nc3cccc(-c4cc5ccccc5[nH]4)c3)C2)c1C (configuration not stated)
 : 8 | 7 | -1 | -6 | 3 | -4.5 | 5012
Cc1ccccc1NCC(=O)N/N=C/c1c(C)c(C(=O)c2ccc(Cl)cc2)n2ccccc12
 : x | x | x | -19 | 3 | x | 2384

# (next part)
SMILES	ugtP null kill	Mtb hypoxia inh	Mtb hypoxia inh growth	PrP UTR inh	BJeLR lethal	Sa RN4220 lethal	Bead autofluor
CCCCn1c(=O)c(C(=O)Nc2ccccc2)c(O)c2ccccc21	-1	-5	-4	-6	-10	6.4	4475
O=C(Nc1cccc(-c2cccc(Cl)c2)c1)C1CCN(Cc2ccon2)CC1	0	13	4	-5	3	-4.3	4268
COc1ccc(C(=O)c2sc(Nc3ccccc3F)nc2N)cc1	-10	17	1	-27	-6	17	4011
COc1ccc(F)c(CN(C)CC2CCCN(CCc3ccc(F)cc3)C2)c1 (configuration not stated)	14	-1	1	-13	2	0.0	4251
NC(=O)COC(=O)c1cccnc1Nc1ccccc1F	6	4	8	-19	-2	2.6	4396
COC(/C=C/Nc1ccc(C)cc1)=C(C#N)C#N	3	10	4	-20	-5	5.3	9489
C=C1CCN([C@@H](Cc2ccccc2)C(=O)O)S(=O)(=O)c2ccccc21	x	x	x	-26	4	x	4362
CCOc1cc(C=NNC(=O)COc2ccc(Cl)cc2)ccc1OS(=O)(=O)c1ccccc1	-19	7	8	x	x	-8.1	x
CCn1ncc(/C=N\NC(=O)c2cc(-c3ccc(C)cc3C)nc3ccccc23)c1C	x	x	x	-18	-1	x	4269
COc1ccccc1/C=C/C=NNC(=O)CC1C(=O)NN=C1C (configuration not stated)	-1	12	12	x	x	4.6	x

# Compounds were not picked by outcome. About 4.1% of those tested had a hit in this group.
